# Compound activity from PubChem.
# Biofilm kill mix = mixtures killing C. albicans biofilm. C. albicans biofilm persisters + clotrimazole, fluorescence viability; primary screen in compound mixtures of four per well. 120,000 tested, 0.02% active. inhibition, % at 7.6 µM;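 active = inhibition above 30.3% in the primary screen of four-compound pools, then above 30% when the compound was retested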;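 note: compounds exposed to preformed 24 h biofilms for 48 h; the number belongs to the whole pool; some results filed as inactive read as strong as hits; inactives centre near 12; 0% = biofilm with clotrimazole alone and 100% = kill control; retested singly at about 60 µM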
#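 Test system: C. albicans CAF4-2 wild-type biofilms; buffer or medium: RPMI/MOPS medium, pH 7.0; schedule: 24 h biofilm formation, then 48 h compound exposure, 37 °C; detection: Alamar Blue fluorescence; measure: percent inhibition of biofilm viability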
# * hit, by the source's call; & = joins results of further samples.
SMILES,Biofilm kill mix
CC(=O)NN1C(=O)/C(=C\c2ccc(O)cc2)SC1=S,23.7
CCN(CC(=O)Nc1ccc(C)c(F)c1)CC(=O)NC(C)C,5.7
Cc1ccc(S(=O)(=O)N(C)C)cc1NC(=O)Nc1ccccc1F,19.4
O=C(COC(=O)/C=C/c1ccc(OC(F)F)cc1)NCCN1C(=O)CSC1=O,22.4
Cc1ccn(CC(=O)N/N=C/c2cc([N+](=O)[O-])ccc2O)n1,7.4
Cc1ccc(CN2CCN(/N=C/c3ccc(N(C)C)cc3)CC2)cc1,19.1
Cn1c(NC(=S)Nc2ccccc2)nc2ccccc21,13.3
Cc1ccc(NC(=O)COc2ccccc2[N+](=O)[O-])nc1,-7.2
COc1ccccc1NC(=O)Cn1c(C)cc(=O)c2cccc(OC)c21,16.6
COc1ccc(C2c3ccsc3CCN2C(=O)C(C)(C)C)cc1 (stereo not drawn),10.8
CCCOC(=O)c1ccc(NC(=O)c2nc3nc(C)cc(C)n3n2)cc1,1.6
Cc1cc2nc3n(c2cc1C)CC1CC(C(=O)NCC2CC2)N(C)C31 (stereo not drawn),9.2
CC(=O)Nc1cc(-c2ccc(Cl)cc2)[nH]n1,-13.7
Cc1cc(C(=O)Cn2nc(C(=O)O)c3ccccc3c2=O)c(C)n1-c1ccc(OC(F)F)cc1,16.4
O=C(COC(=O)c1ccc2c(c1)C(=O)N(Cc1ccncc1)C2=O)Nc1ccccc1[N+](=O)[O-],11.8
COc1ccc(NC(=O)CSc2nnc(NC(=O)c3ccc(S(=O)(=O)N4CCOCC4)cc3)s2)cc1,12.7
Cc1nc(N2CCN(S(=O)(=O)c3ccccc3C#N)CC2)c2c(-c3cccs3)csc2n1,8.7
COc1ccc(CC(=O)Nc2ccccc2NC(=O)c2ccco2)cc1OC,13.6
NC(=O)C1CCN(C(=O)CC2(CC(=O)O)CCCCC2)CC1,17.2
O=C(CSc1cccc[n+]1[O-])NN(c1ccccc1)c1ccccc1,23.5
CN(C)c1nc(N(C)C)n(Cc2c(Cl)cccc2Cl)n1,15.4
CCC(C)NC(=O)COc1ccccc1[N+](=O)[O-] (stereo not drawn),14.7
Cc1cccc(N2CCN(C(=O)CCN3C(=O)C4C5C=CC(C5)C4C3=O)CC2C)c1 (stereo not drawn),8.6
Clc1ccc(-c2csc(N3CCSCC3)n2)cc1,10.1
COc1ccccc1-c1ccc(SCc2ccccc2)nn1,1.3
N#CC1=C(N)OC2=C(CCc3ccccc32)C1c1ccccc1 (stereo not drawn),13.2
CC(=O)Nc1cccc(NC(C)=O)n1,8.3&14.5
CC(=O)c1cc2ccc(O)cc2oc1=O,17.8
CCOC(=O)CC(NC(=O)Cn1nnc(-c2ccccc2F)n1)c1ccccc1Cl (stereo not drawn),10.2
CC(O)CNC12CC3CC(CC(C3)C1)C2 (stereo not drawn),10.2
Cc1cc(NC(=O)c2coc(=O)c(Br)c2)ccc1C(C)C,19.8
CC(C)(C)c1cc(C(=O)NCc2cc(F)cc3c2OCOC3)n(Cc2ccccc2)n1,18.7
COc1ccc(NC(=O)C(=O)NCCC2=CCCCC2)c(OC)c1,15.7
N=C1/C(=C/c2ccc(-c3cccc(C(=O)O)c3)o2)C(=O)N=C2SC=C(c3ccccc3)N12,1.1
CCO[C@@H]1OC(C(=O)Nc2ccccc2)=C[C@H](c2ccc(Br)cc2)[C@H]1CCCO,14.5
COc1cccc(/C=N/NC(=O)CCn2nnc3ccccc32)c1,12.0
Cc1ccc(-c2nnn(CCOc3cccc(Br)c3)n2)cc1,22.6
CCOC(=O)C(C)Oc1cccc2c(=O)n(CC(=O)NCc3ccc(F)cc3)ccc12 (stereo not drawn),12.0
O=C(NCc1cccs1)c1ccc(Br)o1,9.9
Cc1cccc(-n2c(O)c(C=Nc3cccc(O)c3)c3ccccc3c2=O)n1,21.2
COc1ccc(N(C(C)C(=O)NN=C2CCCCCCC2)S(C)(=O)=O)cc1 (stereo not drawn),-0.4
CCOC(=O)C1=C(C)NC(C)=C(C(=O)OCC)C1C,11.8&16.8
Cc1ccc(NCC(=O)N/N=C\c2ccc[nH]2)cc1,20.4
CC(C)CC(=O)NC(=S)Nc1ccc(NC(=O)c2ccco2)cc1,14.1
Cc1cc(C=O)c(C)n1-c1ccc(Cl)c(C(=O)O)c1,-5.2
Cc1ccc(NC(=S)N2CCN(c3ccccn3)CC2)c(C)c1,7.8
Cc1nn(CCC(=O)NNC(=S)Nc2cccc(Cl)c2)c(C)c1[N+](=O)[O-],16.4
COc1cc(NC(=O)c2ccc(F)cc2)c(OC)cc1NC(=O)CN1CCOCC1,8.1
CCCS(=O)(=O)N1CCN=C1SCc1cccnc1,0.1
CC(=O)c1nnn(-c2ccccc2C#N)c1C,18.2
O=C(NCc1ccccc1)C(=O)NCC(c1ccco1)N1CCN(c2ccccc2F)CC1 (stereo not drawn),-8.8
O=[N+]([O-])c1ccc(Cl)c(CN2CCSCC2)c1,20.6
CCOC(=O)c1c(C)noc1-c1ccco1,24.0
CCOc1ccccc1C(=O)NC(C(=O)Nc1cccc(S(N)(=O)=O)c1)C(C)C (stereo not drawn),8.8
CCOc1ccc(/C=N/Nc2cc(C)nc(N3CCOCC3)n2)cc1,31.5
COc1ccc(/C(O)=C2/C(=O)C(=O)N(c3ncccn3)C2c2ccc(F)cc2)cc1 (stereo not drawn),29.7
CCOC(=O)c1cnc(Nc2nc3ccccc3o2)nc1CSC(=S)N(CC)CC,14.5
Cc1[nH][nH]c(=O)c1C(c1c(C)[nH][nH]c1=O)c1cn(C)c2ccccc12,23.6
O=C(NC1CCCCC1)OCCN1CCN(Cc2ccccc2)CCC1=O,22.1
NC1=NC[C@@H](Cc2ccc(O)cc2)N1CC1CCCCC1,6.5

# Reformatted as labelled records: 4 of the compounds above.
Cc1cc(C=O)c(C)n1-c1ccc(Cl)c(C(=O)O)c1
  Biofilm kill mix: -5.2

CCOC(=O)c1cnc(Nc2nc3ccccc3o2)nc1CSC(=S)N(CC)CC
  Biofilm kill mix: 14.5

CC(=O)c1nnn(-c2ccccc2C#N)c1C
  Biofilm kill mix: 18.2

COc1ccc(/C(O)=C2/C(=O)C(=O)N(c3ncccn3)C2c2ccc(F)cc2)cc1 (stereo not drawn)
  Biofilm kill mix: 29.7

# The list goes on:
SMILES,Biofilm kill mix
CC1(C)OC(=O)C(=CSc2ccc(C(C)(C)C)cc2)C(=O)O1,-20.7
CSc1ccccc1NC(=O)CN1CCCCC1C (stereo not drawn),-1.3
Cc1nc2cc(NC(=O)C3COc4ccccc4O3)ccc2s1 (stereo not drawn),6.3
COc1ccc(C(=O)n2nc(-c3ccco3)nc2N)cc1OC,16.6
Cc1cc(/C=C2\NC(=S)NC2=O)c(C)n1-c1cccnc1,13.7
CCOc1ccc(-n2c(C)cc(/C=N\NC(=O)CC(=O)NC3CCCCC3)c2C)cc1,7.4
CC(C)SCC(=O)Nc1ncc2c(n1)-c1ccccc1CC2,18.5
COc1ccc(/C=N/NC(=O)c2ccn[nH]2)cc1Cn1nc(C)c([N+](=O)[O-])c1C,19.6
CCOC(=O)c1c(NC(=O)c2cc(-c3ccc(Cl)s3)nc3ccccc23)sc(C(N)=O)c1C,11.3
O=C(CSCc1c(F)cccc1Cl)NCCSCc1ccco1,5.5
COc1cc(SC)ccc1C(=O)NCCc1ccccc1,18.8
CCN(CC)S(=O)(=O)c1cccc(NN=c2c(=O)c3ccccc3c2=O)c1,26.5
Cc1ccc(OCC(=O)Nc2ccc([N+](=O)[O-])cc2)cc1,16.5
CCOCCCNC(=O)C(Cc1ccccc1)NS(=O)(=O)c1cccc2nsnc12 (stereo not drawn),10.5
CCCCCOc1ccc(NC(=O)C(=O)NCC2CCCN2CC)cc1 (stereo not drawn),20.3
COc1ccc(-n2c(C)nc3sc4c(c3c2=O)CCCC4)cc1,-0.4
CCc1cccc(NC(=O)c2ccc3c(=O)n4c(nc3c2)CCCCC4)c1,15.1
c1ccc(-c2nnc(N3CCOCC3)c3ccccc23)cc1,15.3
COc1ccccc1/C=C(/C(=O)OCC(=O)Nc1ccccc1C(C)C)c1ccccc1,5.4
Cc1c(NC(=O)Nc2ccccc2)cccc1[N+](=O)[O-],-1.2
CCOC(=O)C1(Cc2cccc(F)c2)CCN(Cc2cnn(CC)c2C)CC1,10.8
CCOC(=O)c1ccc(NC(=O)CCSCCc2ccccn2)cc1,1.0
O=[N+]([O-])c1cccc(N2Cc3ccccc3C2)c1,18.4
Cc1cccc(C(=O)N(Cc2nc3ccccc3c(=O)[nH]2)C2CCCCC2)c1,8.5
O=C(/C=C/c1ccco1)N1CCN(c2ccc(F)cc2)CC1,6.0
Nc1ccc(S(=O)(=O)NC2=NCCCCC2)cc1,-0.5
Cc1cc(=O)n2[nH]c(CCC(=O)O)nc2n1,15.9
CCOc1ccc(/C=C(/NC(=O)c2ccc(Cl)cc2)C(=O)O)cc1OCC,15.9
Cc1ccccc1NC(NC(=O)c1cccnc1)C(Cl)(Cl)Cl (stereo not drawn),21.5
Cc1cc(C)n(-c2nnc(NCc3ccc(Cl)cc3)nn2)n1,12.2
Cc1[nH]c2ccccc2c1C(=O)COC(=O)c1c(-c2ccccc2Cl)noc1C,21.4
CNC(=S)Nc1cccc(Cl)c1C,20.1
COc1cccc(/C=N/NC(=O)CN(CCc2ccccc2)S(=O)(=O)c2ccc(NC(C)=O)cc2)c1,16.8
O=C(/C=C/c1ccccn1)c1cc(Cl)cc(Cl)c1O,17.3
COC(=O)NC(C)N1C(=O)C2C3C=CC(C3)C2C1=O (stereo not drawn),22.7
Cc1cccc(NC(=O)c2nc[nH]c2C(=O)Nc2ccccc2[N+](=O)[O-])c1,6.3
Cc1cc(C)n2nc(SCC(=O)NC(=O)NCc3ccco3)nc2n1,6.8
O=C(c1ccc(-n2cccc2)cc1)N1CCCCC1,19.9
O=C(Cn1nc([N+](=O)[O-])nc1Br)NC(c1ccccc1)c1ccccc1,-8.8
O=[N+]([O-])c1cccc(N/N=C/c2cccc3ccccc23)c1,6.4

# Compounds listed so far containing a cyano group:
SMILES,Biofilm kill mix
Cc1nc(N2CCN(S(=O)(=O)c3ccccc3C#N)CC2)c2c(-c3cccs3)csc2n1,8.7
N#CC1=C(N)OC2=C(CCc3ccccc32)C1c1ccccc1 (stereo not drawn),13.2
CC(=O)c1nnn(-c2ccccc2C#N)c1C,18.2

# Next section:
SMILES,Biofilm kill mix
COc1ccc(Cn2c(O)c(C=Nc3ccc(C)cc3)c3ccccc3c2=O)cc1,7.9
CCNC(=S)N/N=C/c1c(Cl)cccc1Cl,5.7
COc1ccc(NC(=O)CN(C)CC(=O)Nc2ccc(Cl)c(S(=O)(=O)N(C)C)c2)cc1,10.0
O=C(COc1ccccc1)Nc1ccc(N2CCN(C(=O)c3cccs3)CC2)cc1,12.4
N=c1c(-c2nc3ccccc3[nH]2)cc(C(=O)c2ccco2)nn1-c1ccccc1,3.1
COc1ccc(C)cc1NC(=O)Cn1cnnn1,-4.6
CC(NCc1ccc(-c2ccccc2)cc1)C(O)c1ccccc1 (stereo not drawn),5.6
CC(C)=CCCC1(C)C=Cc2c(c(C)cc3c2[nH]c2cc(O)ccc23)O1 (stereo not drawn),14.7
C/C(N)=C(/C#N)C(=O)COC(=O)CNC(=O)c1ccc(Cl)cc1Cl,17.0
COc1ccc(NC(=O)C2=Cc3ccccc3OC2)cc1,6.4
Cc1ccccc1-c1nc(SCc2ccccn2)c2c(=O)n(C)c(=O)n(C)c2n1,-7.8
O=C(N/N=C1\CC2CC=CC12)c1ccc(O)cc1 (stereo not drawn),1.0
COC(=O)C1=C(N)OC2=C(C(=O)CCC2)C1c1ccccc1OC (stereo not drawn),14.2
C=CCN(CC=C)C(=S)Nc1ccc(OC)c(OC)c1,1.9
CC(=O)O/N=C1\C(=O)N(Cc2ccc(C)cc2)c2ccccc21,13.0
C/C(=N/NC(=O)C(O)(c1ccccc1)c1ccccc1)c1ccc([N+](=O)[O-])o1,13.5
O=C(CNC(=O)c1cccs1)c1ccc(F)cc1,13.8
O=C(c1ccc2[nH]c3c(c2c1)CCCC3)N1CCN(c2ccc(F)cc2)CC1,16.5
CCc1nnc(NC(=O)C2=CCN(S(=O)(=O)c3ccccc3)CC2)s1,19.3
CC(=O)Nc1ccccc1C(=O)C(=O)Nc1ccc(C(=O)N2CCOCC2)cc1,14.0
Cc1cc(O)c(-c2cc(O)c(C)cc2O)cc1O,16.0
Clc1ccc2nncn2n1,18.5
COc1ccc(CCN(Cc2ccccn2)C(=S)Nc2cccc(SC)c2)cc1OC,12.1
C#CCOCCOCCOCCNc1nc(N2CCN(C(=O)C(Cc3ccc(O)cc3)n3cc(C(N)CC(C)C)nn3)CC2)nc(N2CCN(C(=O)C(Cc3cc4ccccc4[nH]3)n3cc(C(N)C(C)CC)nn3)CC2)n1 (stereo not drawn),17.7
O=c1c2[nH]c3cccc(Cl)c3c2ncn1CC1CCCO1 (stereo not drawn),34.1
CCOC(=O)C1=C(N)OC2=C(C(=O)CCC2)C1c1ccccc1OC (stereo not drawn),-0.5
O=S(=O)(Nc1ccc2cn[nH]c2c1)c1ccc(Cl)s1,16.2
COc1cc(S(=O)(=O)N(Cc2cccc(OC)c2OC)CC2CCCO2)ccc1-n1cnnn1 (stereo not drawn),12.6
O=C(CSc1nc2ccccc2[nH]1)N1CCN(C(=O)c2ccco2)CC1,17.0
COc1ccc(CN(CC(=O)NCc2ccccc2)C(=O)c2csnn2)cc1,13.2
COc1cc(S(=O)(=O)N(CCc2ccccc2)Cc2cccs2)ccc1-n1cnnn1,10.2
NCCCC[C@H](NC(=O)C1CCNCC1)c1nnc([C@@H](N)CO)o1,19.0
CC1Cc2ccccc2N1C(=O)CNc1ccccc1N1CCCCC1 (stereo not drawn),19.9
Cc1ccc(CCc2nnc(SCC(=O)Nc3ccccc3Cl)n2-c2ccccc2)o1,4.4
COc1cccc(OC)c1C(=O)NNC(=O)c1ccc(F)cc1,13.8
Cc1ccc(OCCN2C(=O)c3ccccc3C2=O)c([N+](=O)[O-])c1,15.4

# An excerpt. The share of hits here may be higher or lower than overall.
